Compound activity deposited in PubChem BioAssay by several laboratories.
FGF22 binding: shifts melting point of recombinant human FGF22. 340,000 compounds, 1.5% hits. calls only at 9.99 µM. AID 651658. recombinant FGF22 thermal shift, SYPRO orange fluorescence; percent of sucrose octasulfate shift, DMSO zero;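 active = melting point raised past a set limit in the mean and every replicate; inconclusive = no clear call; three in four hits are not shown here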
Target sequence (Q9HCT0 whole entry, looked up): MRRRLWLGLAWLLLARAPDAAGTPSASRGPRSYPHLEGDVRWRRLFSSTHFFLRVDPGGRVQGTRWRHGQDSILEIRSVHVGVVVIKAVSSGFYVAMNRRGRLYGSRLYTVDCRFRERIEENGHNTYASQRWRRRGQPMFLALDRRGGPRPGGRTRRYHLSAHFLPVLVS
Vif A3G: HIV-1 Vif–A3G interaction blockers – biochemical, TR-FRET, GST-Vif 1-94, biotin-A3G peptide, dose response retest, primary screen (AID 1117319); one-dose inhibition, %; IC50 in µM for titrated hits; 260,000 compounds, 0.57% hits; TR-FRET GST-Vif / biotin-A3G peptide binding; higher % means a stronger effect; test concentration not given here; strong numbers were not always called active;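 active = above the screen mean plus three standard deviations and confirmed in dose response; inconclusive = results disagree or hit not tested in dose response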;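 note: Vif residues 1-94 fused to GST binding biotinylated APOBEC3G peptide 110-148; 0% = full assay without inhibitor and 100% = GST in place of GST-Vif; retest series ran down from 100 µM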
MLL AF4-AF9 inh: blocks AF4 peptide binding to human AF9 | P42568 | AlphaScreen, biotin-AF4 peptide binding to FLAG-AF9 | inhibition, % at 10 µM | 350,000 compounds, 0.47% hits;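 active = every replicate reaching a set inhibition limit, whatever the replicate mean, cut at about 25% in these data; inconclusive = mean inhibition reaches that limit but some replicates miss it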;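 note: 0% = plate neutral control median and 100% = total signal loss; the record names both 10 and 1 µM as test concentration; the first replicate is given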
Target sequence (P42568 whole entry, looked up): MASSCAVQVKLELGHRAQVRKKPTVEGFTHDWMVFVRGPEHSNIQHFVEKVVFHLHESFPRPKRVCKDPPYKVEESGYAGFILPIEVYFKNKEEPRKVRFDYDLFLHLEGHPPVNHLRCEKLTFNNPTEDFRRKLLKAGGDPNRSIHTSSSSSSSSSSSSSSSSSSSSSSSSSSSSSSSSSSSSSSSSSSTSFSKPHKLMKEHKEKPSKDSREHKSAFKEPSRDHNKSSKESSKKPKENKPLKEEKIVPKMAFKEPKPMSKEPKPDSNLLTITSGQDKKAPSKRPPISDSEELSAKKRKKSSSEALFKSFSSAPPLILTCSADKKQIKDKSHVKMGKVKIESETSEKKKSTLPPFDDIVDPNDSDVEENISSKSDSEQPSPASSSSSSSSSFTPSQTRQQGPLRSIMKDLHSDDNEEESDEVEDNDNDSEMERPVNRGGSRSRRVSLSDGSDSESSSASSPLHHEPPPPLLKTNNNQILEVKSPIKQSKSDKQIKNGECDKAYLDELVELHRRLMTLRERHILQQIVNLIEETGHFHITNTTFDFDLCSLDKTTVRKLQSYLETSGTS
Ecoli growth: inhibitors of Escherichia coli growth; OD600, 23 h; stronger effect = lower value; OD600 absorbance (test concentration not listed); 330,000 compounds, 0.21% hits; AID 1053175;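 active = OD600 absorbance below the run mean of sample wells minus 3.6 SD, in any replicate, cut at about 0.56 in these data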;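 note: stock transfer was 300 nL into about 60 µL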
HNF4A DNA FP: change in binding of human HNF4 alpha to DNA. HNF4a-FITC DNA binding, fluorescence polarization, 1 h. activity change, % at 10 µM. 360,000 compounds, 0.3% hits; in the data active = activity change above about 30%, passing the limit was not always enough;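 note: controls were the assay level and a saturating level of protein; the project sought stronger binding though the title names inhibitors; some compounds called inactive have numbers as strong as hits; positive values seem to mean higher polarization but the record does not say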
RanGTP-Imp inh: disruptors of Ran-importin-beta complex formation – biochemical, FRET, CFP-Ran, YFP-importin-beta, homogeneous, primary screen. AID 2216. inhibition, % (test concentration not listed). cell-free CFP-Ran/YFP-importin-beta FRET ratio. 300,000 compounds, 1.1% hits;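 active = most replicates above 15%; inconclusive = exactly half above 15%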;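 note: 0% = DMSO wells and 100% = Ran loaded with GDP instead of GTP; wells of about 40 µL received 100 nL stock; the first replicate is given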
UCH37 DUB inh: inhibitors of human deubiquitinating enzyme UCH37; 330,000 compounds, 0.33% hits; AID 588478; inhibition, % (no concentration beside the values); Q9Y5K5; purified proteasome/UCH37, Ub-AMC cleavage fluorescence;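 active = mean of two replicates above 20%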;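 note: 0% = compound-free wells with enzyme and 100% = wells lacking proteasome; stock transfer was 100 nL into about 20 µL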
Target sequence (Q9Y5K5 whole entry, looked up): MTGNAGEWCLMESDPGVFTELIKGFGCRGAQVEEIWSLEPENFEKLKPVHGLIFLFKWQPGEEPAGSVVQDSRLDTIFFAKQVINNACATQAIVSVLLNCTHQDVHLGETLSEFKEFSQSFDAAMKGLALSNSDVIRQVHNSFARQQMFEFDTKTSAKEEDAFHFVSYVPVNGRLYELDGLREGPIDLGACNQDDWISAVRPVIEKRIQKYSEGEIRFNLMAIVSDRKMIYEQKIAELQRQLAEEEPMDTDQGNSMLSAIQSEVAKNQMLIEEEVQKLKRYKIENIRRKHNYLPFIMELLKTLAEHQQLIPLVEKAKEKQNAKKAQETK
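Material: human UCH37 enzyme supplied as purified proteasome complex. Measure: % inhibition of Ub-AMC cleavage fluorescence. Medium: pH 7.4 Tris-HCl (50 mM) with ovalbumin, ATP-MgCl2, DTT. Times: 30 min preincubation with enzyme, 25 min cleavage at room temperature. Detection: AMC fluorescence intensity at 355/460 nm.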
Numbers without * were called inactive; i = inactive; ? = inconclusive; . = no result given; + = active, no number; & = joins results of further samples. Only part of the results is shown (hit frequency here may not be typical).

SMILES	FGF22 binding	Vif A3G	MLL AF4-AF9 inh	Ecoli growth	HNF4A DNA FP	RanGTP-Imp inh	UCH37 DUB inh
CN(C)C(=O)C(=O)c1cccn1-c1cccc(Cl)c1C#N	.	26.8%	0.5	0.68	-1.1	1.0	1.8
O=c1cc(-c2ccccc2)nc(Cc2c(Cl)cccc2Cl)[nH]1	i	1.5%	1.1	0.722	2.1	-2.2	3.2
COc1ccc(N(C(=O)CNC(=O)c2ccco2)C(C(=O)NCC2CCCO2)c2ccccc2)c(OC)c1 (stereo unspecified)	i	.	-2.4	0.674	1.1	-0.2	1.2
Cc1[nH]c(=S)sc1Cc1ccc(Cl)c(Cl)c1	i	10.5%	0.8	0.711	.	-0.9	6.4
O=C(NC(Cc1c[nH]c2ccccc12)C(=O)N1CCOCC1)c1cccs1 (stereo unspecified)	i	-7.4%	0.8	0.692	-6.1	7.0	3.1
Cc1nn(-c2ccccc2)c(Cl)c1/C=N/NC(=O)c1cccnc1	+	.	6.6	.	6.3	-2.2	.
O=C(CCSc1ccccc1)Nc1ccccc1Br	i	.	1.0	0.686	-0.8	?	-0.4
O=C(C1=C(O)C(=O)N(CCc2ccccc2)C1c1cccnc1)c1ccco1 (stereo unspecified)	.	-1.6%	.	0.747	2.6	-0.8	11.6
Cc1cc(C)n2nc(C(=O)NCc3ccccc3)nc2n1	.	5.2%	.	0.719	-1.7	4.4	-2.8
COc1ccc(-n2sc3ccccc3c2=O)cc1	i	.	-14.0	.	-2.6	.	.
Nc1nnc(N)c2ccccc12	i	31.0%	-1.9	0.636	1.8	.	-41.8
CC(C)C(Cl)=NOC(=O)Nc1ccc(F)cc1	i	-1.0%	3.5	.	3.0	.	.
O=C(O)c1ccc(S(=O)(=O)NCc2cccnc2)cc1	i	-0.9%	-1.4	0.697	3.1	3.3	3.8
CC1(C(=O)O)CCCN(C(=O)c2cc3ccccc3s2)C1 (stereo unspecified)	i	.	-3.9	.	0.0	.	.
Cn1c2ccccc2c(=O)c2c(=O)n(Cc3ccco3)c(-c3ccc(C(C)(C)C)cc3)nc21	.	-3.2%	.	0.712	.	2.4	5.8
Cc1cccc(C(=O)Nc2ccc3c(c2)ncn3C)c1	i	3.6%	-0.4	0.648	3.5	0.4	4.8
COC(=O)N1[C@H](Cc2ccccc2)C=C[C@]1(C)C(=O)NCc1ccccn1	.	-0.3%	.	.	-2.6	-1.8	4.3
CC(OC(=O)CNC(=O)c1ccc(F)cc1)C(=O)Nc1ccc(S(=O)(=O)N2CCOCC2)cc1 (stereo unspecified)	i	-1.5%	-1.4	0.676	6.1	.	-5.5
COC(=O)[C@H](CC(C)C)NC(=O)N1CCC(C)CC1	i	1.7%	-6.0	0.645	0.3	-5.7	2.9
Cc1ccc(-c2cc(Cc3ccc(N(C)C)cc3)c(=O)[nH]n2)cc1	i	0.0%	-1.3	0.618	-0.2	-6.9	3.7
COc1ccc(-c2ccc(CN3C(CC(C)C)C(=O)N(Cc4cn(CC5CCCCC5)nn4)CCS3(=O)=O)cc2)cc1 (stereo unspecified)	i	.	-0.1	.	4.1	.	.
Cc1cc(C)c(S(=O)(=O)c2c(C)cccc2C)c(OCC(C)C)n1	.	0.8%	.	0.676	-2.1	2.4	5.7
CCCCn1nnc(NC(=O)CC23CC4CC(CC(C4)C2)C3)n1	.	4.1%	.	0.692	0.1	-3.2	-0.1
Cc1ccc(NC(=O)CS(=O)CC(=O)N(C2CCCC2)C(C)C(=O)NC2CCCCC2)cc1 (stereo unspecified)	.	18.1%	.	0.614	-0.2	-0.5	2.0
Cc1ccc2sc(C)[n+](CCCS(=O)(=O)[O-])c2c1	i	6.0%	-0.9	0.701	-3.8	1.6	0.7

New compounds follow
SMILES	FGF22 binding	Vif A3G	MLL AF4-AF9 inh	Ecoli growth	HNF4A DNA FP	RanGTP-Imp inh	UCH37 DUB inh
CC1(C)CC(=O)C(C=NCCc2ccc(S(N)(=O)=O)cc2)=C(O)C1	.	2.1%	.	0.711	-2.3	-3.7	3.4
Cc1ccccc1/C=C/C1=NCCN1	i	.	-3.5	.	-1.5	.	2.6
COc1cc(C(=O)NCC(=O)N/N=C/c2ccccn2)cc(OC)c1OC	i	1.7%	-1.7	.	4.1	2.1	.
O=C(CSc1nnc(CNC(=O)c2ccccc2)o1)c1ccccc1	i	2.2%	-1.0	0.708	-1.5	-4.8	1.0
Cn1c(C(C(=O)NCC2CCCO2)N(CCc2ccccc2)C(=O)Cn2nnc3ccccc32)nc2ccccc21 (stereo unspecified)	i	0.8%	2.4	0.704	0.6	0.0	2.4
O=C1COc2ccc(C(=O)COC(=O)Cc3c(F)cccc3Cl)cc2N1	i	-0.6%	-2.5	0.643	6.7	.	-1.9
CC1(CCc2ccccc2)NC(=O)N(CC(=O)N2CC(=O)Nc3ccccc32)C1=O (stereo unspecified)	i	.	7.4	0.718	-3.9	-3.0	-1.5
NC(=O)c1cc(C(=O)Cc2ccccc2)c[nH]1	i	.	1.6	0.629	-1.2	8.8	2.1
CCC(=O)NC(=S)Nc1ccc(NC(=O)c2ccco2)cc1	i	.	-2.0	0.637	3.0	-1.2	5.3
Cc1cc(C)c(C)c(S(=O)(=O)NNC(=O)c2cccc(S(=O)(=O)N3CCOCC3)c2)c1C	.	7.8%	.	0.713	1.6	?	1.2
COC(=O)CCCN1C(=O)c2cccc3cccc(c23)C1=O	i	0.1%	0.5	0.622	0.6	3.2	-103.2
O=C(O)c1ccccc1-c1nc(-c2ccccc2)c(-c2ccccc2)[nH]1	i	-9.6%	0.4	0.713	-2.0	-0.8	4.9
O=C(C1=C[C@H](c2ccc(Br)cc2)C[C@H](OCCCCO)O1)N1CCN(Cc2ccccc2)CC1	i	-4.9%	0.1&1.2	.	0.9	4.9	-0.7
Cc1ccc(OCC(=O)N2CC(C)CC(C)C2)c([N+](=O)[O-])n1 (stereo unspecified)	i	4.2%	0.7	0.69	-0.7	.	-0.3
CCCCc1cc(=O)oc2cc(OCc3nn[nH]n3)c(Cl)cc12	.	11.8%	.	0.81	-0.8	-1.5	-41.1
COc1cc(NC(=O)C2CC(=O)N(Cc3ccco3)C2)cc(OC)c1 (stereo unspecified)	i	-7.5%	4.4	0.7	-0.5	.	4.0
CCCN1CCN(CCCNC(=O)c2cc3c(=O)[nH]c4ccccc4c3s2)CC1	i	?	0.5	0.701	4.9	3.7	-197.4
COc1cc2c(=O)n(CCCC(=O)NCC3CCCO3)c(=O)n(CC(=O)c3ccc(F)cc3)c2cc1OC (stereo unspecified)	i	-22.6%	4.0	0.69	2.4	1.2	2.6
Cc1ccc(CS(=O)Cc2ccc(C(=O)N3CCN(c4cccc(C)c4C)CC3)o2)cc1 (stereo unspecified)	i	0.0%	-4.4	.	-2.3	.	.
CCOc1ccc(CN2CCNC(=O)C2CC(=O)N(C)C2CCCCC2)cc1 (stereo unspecified)	i	.	6.8	0.63	-0.3	5.6	-3.7
CCOc1ccccc1C1CC(=O)Nc2cc(C)c(C)cc21 (stereo unspecified)	i	1.8%	-23.3	0.684	1.1	1.2	1.4
CC(C)(C)OC(=O)C[C@@H]1C/C=C\C[C@H](CC(=O)NCCO)C(=O)NC[C@H](c2ccccc2)OC1=O	i	.	0.9	.	-1.3	.	3.1
CCOc1cc(/C=N/NC(=O)COc2ccc(C)cc2)ccc1OC(=O)c1cccs1	.	13.2%	.	.	-1.5	0.5	.
CCO[C@@H]1OC(C(=O)NC2CC2)=C[C@H](C)[C@H]1CCCO	i	.	-3.8	.	0.3	3.2	1.4
COc1ccc2c(c1)C(SCC(=O)NCCc1ccc(Cl)cc1)CC(C)(C)O2 (stereo unspecified)	i	-2.5%	0.5	0.706	-3.2	?	-3.7

(more compounds)
SMILES	FGF22 binding	Vif A3G	MLL AF4-AF9 inh	Ecoli growth	HNF4A DNA FP	RanGTP-Imp inh	UCH37 DUB inh
CNC(=O)c1ccc(CN(C)CC(=O)Nc2ccccc2C(=O)NC2CC2)cc1	i	11.6%	0.7	0.659	1.5	.	4.5
COCC(C)n1c(C)cc(C(=O)CSc2cc(C)c3ccccc3n2)c1C (stereo unspecified)	.	0.8%	.	0.675	2.3	-5.7	3.2
Cc1cc(C)n2nc(SCC(=O)N(C(C)C)C(C)C)nc2n1	.	0.8%	.	0.706	1.3	-2.6	0.5
Cc1cccn2c(=O)nc(SCC(=O)NCc3ccc(F)cc3)nc12	i	-4.2%	-1.7	0.673	3.0	-0.6	-6.4
CC(C)CCn1cnc2c([nH]c3cccc(Cl)c32)c1=O	.	64.9%	.	0.786	-5.6	-0.2	-3.4
O=C(NCCc1c[nH]c2ccccc12)C1CCCN(S(=O)(=O)c2ccccc2)C1 (stereo unspecified)	i	.	4.2	0.686	-4.7	-2.8	5.0
CSc1ccc(/C=N/NC(=O)c2cccc(O)c2)cc1	.	4.2%	.	.	-0.6	?	.
COc1ccc(-n2c(C(C)(C)C)csc2=Nc2c(C)n(C)n(-c3ccccc3)c2=O)cc1	i	-5.7%	-19.6	0.712	-0.1	1.4	3.9
CC(C)C(=O)N1CCCCCCN1C(=O)C(C)C	i	5.9%	-2.3	.	-4.9	.	.
Cc1ccc(CN2CCSc3sccc3C2=O)cc1	i	-3.4%	-2.7	0.71	-0.3	-2.2	3.1
COc1cc(CN(C)c2ccc(S(=O)(=O)N3CCCC3)cn2)ccc1OC(F)F	i	10.2%	4.5	0.646	-1.4	.	1.6
COC(=O)c1ccccc1NC(=O)c1cccc(NC(=O)C(C)C)c1	.	-3.0%	.	0.721	12.2	2.8	2.9
O=C1C2CC(O)CN2C(=S)N1Cc1ccccc1 (stereo unspecified)	i	18.4%	-5.9	0.715	3.9	3.0	0.5
CC(=O)N1CCc2ccc([N+](=O)[O-])cc21	i	-3.8%	-0.8	0.654	6.8	.	6.7
CC(NC(=O)c1csc2ccccc12)C1CCCO1 (stereo unspecified)	.	4.6%	.	0.702	-2.4	3.1	1.2
Cc1csc(C2=C(O)CN(CCc3ccccc3)C2=N)n1	.	-4.9%	.	0.677	3.1	4.5	1.1
COc1ccc(Cc2c(-c3ccccc3)nc3cc(C)c(Br)c(C)n23)c(C)c1	i	.	0.2	.	0.9	.	.
COc1cc(OC)c(/C=N/NC(=O)c2ccc(NC(C)=O)cc2)cc1Br	i	?	0.9	.	-0.3	-0.5	.
O=C(NCCCN1CCOCC1)c1ccc(Cl)s1	.	8.5%	.	0.706	-3.0	-3.5	2.6
CC(C)(C)c1ccc(C(=O)Nc2ccc(NC(=O)C(=O)O)cc2)o1	i	8.5%	1.5	0.651	2.5	4.4	1.4
CC(C)NC(=O)/C(=C/c1cn(-c2ccccc2)nc1-c1cccc([N+](=O)[O-])c1)NC(=O)c1ccccc1	.	-4.0%	.	0.694	1.1	4.5	5.9
CCCCSc1oc(-c2ccco2)nc1S(=O)(=O)c1ccccc1	i	.	-1.2	0.676	2.1	7.0	1.7

Pulled one by one from the entries so far:
SMILES	FGF22 binding	Vif A3G	MLL AF4-AF9 inh	Ecoli growth	HNF4A DNA FP	RanGTP-Imp inh	UCH37 DUB inh
COc1cc(CN(C)c2ccc(S(=O)(=O)N3CCCC3)cn2)ccc1OC(F)F	i	10.2%	4.5	0.646	-1.4	.	1.6
Cc1csc(C2=C(O)CN(CCc3ccccc3)C2=N)n1	.	-4.9%	.	0.677	3.1	4.5	1.1
Cc1cc(C)n2nc(SCC(=O)N(C(C)C)C(C)C)nc2n1	.	0.8%	.	0.706	1.3	-2.6	0.5
O=C(NCCCN1CCOCC1)c1ccc(Cl)s1	.	8.5%	.	0.706	-3.0	-3.5	2.6
